Ecoli growth – E. coli growth inhibition, primary screen, OD600. 0.21% of 330,000 active. AID 1053175, 2014. Escherichia coli growth, 23 h; hits give low values. OD600 absorbance (test concentration not listed);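 active = OD600 absorbance below the run mean of sample wells minus 3.6 SD, in any replicate, cut at about 0.56 in these data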;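 note: stock transfer was 300 nL into about 60 µL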
FGF22 binding – binders of human FGF22 protein, primary screen, FGF22 synaptogenesis inhibitor project, biophysical, thermal shift, single point. 1.5% of 340,000 active. Fibroblast growth factor 22 (Homo sapiens), Q9HCT0. recombinant FGF22 thermal shift, SYPRO orange fluorescence; percent of sucrose octasulfate shift, DMSO zero. calls only at 9.99 µM;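 active = melting point raised past a set limit in the mean and every replicate; three in four hits are not shown here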
Target sequence (Q9HCT0 whole entry, looked up): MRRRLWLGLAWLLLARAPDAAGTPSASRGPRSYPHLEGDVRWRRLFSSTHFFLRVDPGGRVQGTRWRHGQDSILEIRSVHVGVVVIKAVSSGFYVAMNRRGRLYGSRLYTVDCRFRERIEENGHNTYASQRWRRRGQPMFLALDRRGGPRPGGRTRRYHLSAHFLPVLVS
rRNA inh HTS – reduced GFP signal of wild-type E. coli, primary screen, bacterial rRNA inhibitor project, GFP/RFP fluorescence, OD600, single point | E. coli WT GFP vs humanized-ribosome RFP mutants, 24 h; hits give low values; DMSO median 0, no signal -100 | GFP signal change (wild-type ribosome), % (concentration not given with the values) | 1.6% of 350,000 active | AID 720706, 2013;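 active = significant combined selectivity score with lowered wild-type GFP, culture density cut under 30%, mutant RFP and density less affected; inactive = any of these conditions unmet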; note: one replicate is shown; some compounds called inactive have numbers as strong as hits
Beta apoptosis – inhibitors of cytokine-induced beta cell apoptosis, primary screen, luminescence. 0.8% of 300,000 active. INS-1E cytokine-induced death, ATP luminescence, 48 h; percent of positive-control rescue, neutral wells zero. protection from apoptosis, % (test concentration not listed);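 active = all replicates at 75% or more, or half of them and the mean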;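 note: 0% = cytokine-treated negative control wells and 100% = positive control rescue; higher means more ATP so stronger rescue from cytokine killing; wells of about 40 µL received 100 nL stock; the first replicate is given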
T cruzi inh – inhibitors of intracellular T. cruzi growth, primary screen, luminescence, NIH3T3 host cells; inhibition, % (concentration not given with the values); 1.4% of 300,000 active; T. cruzi beta-gal in NIH3T3, 90 h;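 active = mean inhibition across valid replicates above about 55%, limit read from the data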;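 note: signal also drops with host cell toxicity which is not excluded here; 0% = plate median of DMSO wells and 100% = zero luminescence signal; higher percent means less beta-gal luminescence so fewer parasites; stock transfer was 50 nL into about 50 µL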
Bfl-1 A1 inh – caspase 3/7 activation in MEF A1-2A-BIM cells, primary screen, A1 inhibitor project, cell-based, luminescence, HTS. Caspase-Glo 3/7 luminescence, 3 h; percent of clofoctol response, vehicle zero. caspase activation, % (test concentration not listed). 0.066% of 330,000 active;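 active = over half of replicate activation scores above 10%, or exactly half above 10 with the replicate mean above 10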;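 note: wells of about 30 µL received 50 nL stock; many hits fall short of the cut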
MLL AF4-AF9 inh – inhibitors of AF4 peptide binding to AF9, primary screen, biochemical, AlphaScreen, biotin-AF4 peptide, FLAG-AF9, single point. Protein AF-9 (Homo sapiens), P42568. inhibition, % at 10 µM. 0.47% of 350,000 active;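 active = every replicate reaching a set inhibition limit, whatever the replicate mean, cut at about 25% in these data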;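 note: 0% = plate neutral control median and 100% = total signal loss; the record names both 10 and 1 µM as test concentration; the first replicate is given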
Target sequence (P42568 whole entry, looked up): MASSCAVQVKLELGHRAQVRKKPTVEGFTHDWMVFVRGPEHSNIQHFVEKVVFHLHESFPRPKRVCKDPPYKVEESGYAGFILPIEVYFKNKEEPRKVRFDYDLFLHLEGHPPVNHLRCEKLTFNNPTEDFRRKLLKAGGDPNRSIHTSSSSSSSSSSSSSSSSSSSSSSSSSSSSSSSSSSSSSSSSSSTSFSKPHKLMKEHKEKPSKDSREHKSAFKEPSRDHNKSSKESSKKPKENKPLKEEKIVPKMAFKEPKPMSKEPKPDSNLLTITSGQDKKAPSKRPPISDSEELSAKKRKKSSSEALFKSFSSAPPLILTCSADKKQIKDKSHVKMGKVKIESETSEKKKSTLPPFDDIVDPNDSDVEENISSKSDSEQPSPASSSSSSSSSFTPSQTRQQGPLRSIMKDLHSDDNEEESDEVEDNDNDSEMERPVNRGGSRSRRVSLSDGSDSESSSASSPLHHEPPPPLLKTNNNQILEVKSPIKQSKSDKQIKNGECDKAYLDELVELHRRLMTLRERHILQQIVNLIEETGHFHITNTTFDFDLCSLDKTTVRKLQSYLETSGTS
UCH37 inh – inhibitors of human UCH37 deubiquitinase, primary screen, biochemical, Ub-AMC cleavage, fluorescence; Ubiquitin carboxyl-terminal hydrolase isozyme L5 (Homo sapiens), Q9Y5K5; purified proteasome/UCH37; inhibition, % (concentration not given with the values); 0.33% of 330,000 active; AID 588478, 2011;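 active = mean of two replicates above 20%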;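 note: 0% = compound-free wells with enzyme and 100% = wells lacking proteasome; stock transfer was 100 nL into about 20 µL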
Target sequence (Q9Y5K5 whole entry, looked up): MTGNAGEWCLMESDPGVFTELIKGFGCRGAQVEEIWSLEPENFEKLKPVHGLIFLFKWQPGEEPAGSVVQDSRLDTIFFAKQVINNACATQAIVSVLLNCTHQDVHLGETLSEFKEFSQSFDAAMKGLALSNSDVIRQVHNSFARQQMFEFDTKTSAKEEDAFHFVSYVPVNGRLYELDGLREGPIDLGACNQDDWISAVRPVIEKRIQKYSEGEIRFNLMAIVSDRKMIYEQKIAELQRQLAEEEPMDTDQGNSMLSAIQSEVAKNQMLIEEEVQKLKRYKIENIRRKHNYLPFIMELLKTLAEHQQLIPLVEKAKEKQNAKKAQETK
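Material: Human UCH37 enzyme supplied as purified proteasome complex | Schedule: 30 min compound-proteasome preincubation then 25 min substrate reaction, room temperature | Detection: AMC fluorescence from Ub-AMC cleavage, excitation 355 nm, emission 460 nm | Benchmarks: Wells without proteasome as full block, compound-free enzyme plus substrate as uninhibited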
rRNA inh HTS OD600 – also measured in rRNA inh HTS; calls as there; OD600 change, %; measured here: OD600 growth;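 optical density of the mix in the first replicate; 0 = DMSO median and -100 = no signal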
rRNA inh HTS RFP – further read-out of rRNA inh HTS, marked with its call; RFP signal change, %; measured here: RFP humanized mutant strains;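 first replicate; 0 = DMSO median and -100 = no signal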
* hit, by the source's call; i = inactive; nt = no result given.

SMILES	Ecoli growth	FGF22 binding	rRNA inh HTS	rRNA inh HTS OD600	rRNA inh HTS RFP	Beta apoptosis	T cruzi inh	Bfl-1 A1 inh	MLL AF4-AF9 inh	UCH37 inh
COc1ccc(C(C(=O)NC(C)(C)C)N(C(=O)CCC(=O)Nc2cc(C)on2)c2c(C)cccc2C)cc1 (centres undefined)	0.663	i	3.1	4.8	0.5	-6.3	-2.8	2.2	-1.1	5.5
NC(=O)NC(=O)CSc1nnc(-c2ccc(Cl)cc2)n1CC1CCCO1 (centres undefined)	0.675	i	15.1	12.8	-1.2	-3.6	-5.1	1.5	-0.8	2.7
CC(CCc1ccccc1)NC(=O)c1nnc(Cc2ccc(Cl)cc2)o1 (centres undefined)	0.728	i	-12.5	-26.2	0.5	-2.1	1.1	0.3	-7.2	6.6
O=C(Nc1ccc(C(F)(F)F)cc1)C1=NN(C2CCS(=O)(=O)C2)C(=O)CC1 (centres undefined)	0.645	i	-0.3	1.4	-1.2	1.0	nt	0.7	1.6	1.5
O=C(CN1C(=O)NC2(CCCCC2)C1=O)NC1CCCc2ccccc21 (centres undefined)	0.651	i	10.5	2.7	-1.0	4.3	-17.2	-0.8	10.1	0.4
COc1ccc(N(CC(=O)NC2CCCC2)C(=O)CS(=O)CC(=O)Nc2ccc3c(c2)OCO3)cc1 (centres undefined)	0.718	i	0.8	4.9	-0.1	2.9	4.1	0.5	3.3	-0.1
O=C(CSc1nnc(CCCN2C(=O)c3cccc4cccc(c34)C2=O)n1-c1ccccc1)NCCCN1CCOCC1	0.682	i	-1.1	-12.8	-1.5	-0.8	6.8	0.8	2.8	-34.7
O=C(CN1C(=O)CNC1=O)Nc1cc(Cl)cc(Cl)c1	0.615	i	-48.5	-73.5	-7.4	-0.8	nt	0.6	-2.0	2.9
N#Cc1ccsc1NC(=O)C1CC(=O)N(Cc2ccccc2)C1 (centres undefined)	0.649	nt	0.1	2.5	-1.7	0.7	-1.3	0.1	-2.7	1.3
O=C(NCS(=O)(=O)c1ccccc1)c1ccccc1	0.75	nt	nt	nt	nt	-5.3	-7.7	0.9	nt	2.6
O=C(CCC(=O)Nc1cccc([N+](=O)[O-])c1)N/N=C/c1cccs1	nt	i	8.0	12.1	2.9	3.5	nt	-2.0	-0.3	nt
Cc1ccc(CN2CCN(/N=C/c3ccc(C)s3)CC2)c(C)c1	nt	i	-17.4	-10.3	-0.5	-7.6	16.2	0.3	7.2	nt
COc1ccc(S(=O)(=O)n2ccc(-c3ccc4c(c3)CCC(C)(C)O4)n2)cc1	nt	i	5.1	5.8	-0.6	10.1	23.2	0.5	-4.1	nt
COc1ccc(-c2noc(CN(C)C(=O)c3ccco3)n2)cc1	0.69	i	-6.9	-13.4	2.9	-1.7	4.9	-0.7	-0.3	1.2
Cc1ccc(C)c(S(=O)(=O)N2CCCCC2CCNC(=O)C(=O)NC2CCCC2)c1 (centres undefined)	0.712	i	-5.0	-27.4	5.6	nt	-6.1	-0.5	0.8	-2.0
COc1ccc(S(=O)(=O)N2CCN(CCC(=O)Nc3ccccc3F)CC2)cc1	0.691	i	11.4	-2.5	-1.0	-3.5	9.4	-0.7	2.5	-0.5
O=C(Nc1ccccc1Br)c1c(F)cccc1Cl	0.662	i	4.8	8.8	4.2	nt	5.3	1.1	-5.3	-0.2
O=C(Nc1cccc(Cl)c1)N(Cc1nc2ccccc2c(=O)[nH]1)C1CCCC1	0.689	nt	nt	nt	nt	10.7	4.6	1.0	nt	-2.0
O=C(c1ccc2c(c1)OCO2)N1CCN(C(=O)c2ccco2)CC1	0.656	nt	nt	nt	nt	-4.1	-7.5	-0.1	nt	1.0
Cc1cc([N+](=O)[O-])nn1CCCC(=O)NCc1ccc(F)cc1	0.659	i	6.0	9.9	-0.9	-4.4	-21.3	0.9	12.1	3.0
COc1ccc(-c2nn(-c3ccccc3)cc2C(=O)O)cc1	0.723	i	-5.6	-5.6	-1.7	-3.3	5.1	0.0	1.9	-2.5
Cc1nn(CC(=O)NCC2CCCO2)c(=O)c2cc3ccccc3n12 (centres undefined)	0.673	i	-1.5	-16.5	-2.3	-6.7	-10.0	1.6	-1.4	-12.8
O=C(CCN1CCOCC1)Nc1cc(C(=O)Nc2ccc(Cl)cc2)ccc1N1CC2CC(C1)c1cccc(=O)n1C2 (centres undefined)	0.653	i	-0.9	-2.7	-2.8	1.1	-3.2	-2.0	4.3	-1.1
Cc1ccc(NC(=S)N2CCN(Cc3ccccc3)CC2)c(C)c1	0.716	nt	nt	nt	nt	-3.8	1.6	0.5	nt	5.0
C[N+]1(CC2COC3(CCCCC3)O2)CCCCC1 (centres undefined)	0.683	nt	11.2	9.3	0.7	2.7	-3.3	-0.2	-2.6	5.4
CC(SCc1ccccc1)C(=O)Nc1ccc(F)cc1 (centres undefined)	0.702	i	-1.1	-23.1	-6.2	-0.2	-9.0	0.0	-4.8	5.4
O=C(/C=C/c1ccc(Cl)cc1)c1cccnc1	0.672	nt	nt	nt	nt	-1.6	nt	0.5	nt	4.8
O=C(CSc1nc(=O)n2cc(Cl)ccc2n1)Nc1ccc2c(c1)OCO2	0.644	nt	0.6	5.1	-2.8	nt	-2.3	-1.0	-1.7	7.1
O=C(Cc1cccc(NC(=O)C2CCCN(C(=O)C3CC3)C2)c1)Nc1cccc(C(=O)N2CCCCC2)c1 (centres undefined)	0.652	i	3.1	1.8	1.4	nt	nt	nt	-3.5	1.1
CCOc1cc(/C=N/NC(=O)NN(C)c2ncc(C(F)(F)F)cc2Cl)ccc1O	nt	i	-12.2	-13.9	2.2	nt	-4.5	1.0	5.2	nt
COCCN(C(=O)CCC(=O)Nc1cc(C)on1)C(C(=O)NC(C)(C)C)c1cccc(OC)c1OC (centres undefined)	0.677	i	0.7	9.2	-0.1	5.0	-5.5	0.3	0.7	-0.3
CN(Cc1cnn(Cc2ccccc2)c1)C(=O)CN=C1NS(=O)(=O)c2ccccc21	0.666	nt	-2.1	-5.4	1.7	-3.6	nt	0.0	3.5	0.2
CCSc1nc(N)c2c3c(sc2n1)CCC3	0.706	nt	nt	nt	nt	-4.6	-6.7	2.1	nt	1.3
Cc1c(C(=O)O)sc2[nH]c(=O)n(Cc3ccccc3)c(=O)c12	0.674	i	-5.3	-7.5	-0.7	-4.3	-6.5	-0.6	0.3	3.2
Cc1cccc(-c2cc3c(nn2)-c2ccccc2C3=O)c1	0.72	nt	nt	nt	nt	-15.4	10.4	-7.0	nt	4.5
COc1cc(NC(=O)/C=C/c2ccccc2)c(C(=O)O)cc1OC	0.697	i	-16.7	-7.2	7.4	-0.5	-4.9	-1.0	0.5	10.7
C=CCC(C(=O)OC)(C(=O)OC)c1ccc([N+](=O)[O-])cn1	0.673	nt	nt	nt	nt	-0.8	-3.6	-0.9	nt	1.1
CCCCC(=O)Nc1nnc(S(=O)(=O)N2CCCCCC2)s1	0.713	i	-1.3	-0.3	0.5	4.2	0.2	1.1	-0.5	3.2
O=C(c1ccccc1F)N1C(=O)c2cccc3cccc1c23	0.7	i	3.5	11.5	-1.2	-0.8	-6.2	0.6	nt	-24.8
Cc1cc(NC(=O)CSc2ncn[nH]2)no1	0.739	i	8.7	5.4	-2.1	-0.1	-21.5	-0.7	0.5	1.4
N#C/C(C(N)=O)=C1/SC=C(c2ccccc2)N1c1ccccc1	0.653	i	8.6	18.9	0.5	-1.0	9.0	-0.3	-1.0	-16.9
CC(=O)N1CCC(N(CCN2CCOCC2)C(=S)Nc2ccccc2C)CC1	0.711	nt	nt	nt	nt	-1.4	-3.4	-0.3	nt	1.6
N#Cc1c(Cl)nc2c(c1C#N)CCCC2	0.643	i	5.3	-3.6	-1.4	-7.9	-17.6	-0.7	-0.8	2.4
CC(C)(C)OC(=O)[C@H](Cc1ccccc1)NC(=O)c1nc[nH]c1C(=O)NCC(=O)OCc1ccccc1	nt	i	-0.9	-14.9	5.6	-3.0	-2.8	1.8	0.7	-1.2
CC(C)CN(C(=O)c1ccc(Br)o1)C1CCS(=O)(=O)C1 (centres undefined)	0.648	i	9.8	9.3	-0.3	-2.5	-3.8	-0.5	-2.0	1.2

Six entries from above, as a markdown table.
| mol | Ecoli growth | FGF22 binding | rRNA inh HTS | rRNA inh HTS OD600 | rRNA inh HTS RFP | Beta apoptosis | T cruzi inh | Bfl-1 A1 inh | MLL AF4-AF9 inh | UCH37 inh |
| --- | --- | --- | --- | --- | --- | --- | --- | --- | --- | --- |
| CC(C)(C)OC(=O)[C@H](Cc1ccccc1)NC(=O)c1nc[nH]c1C(=O)NCC(=O)OCc1ccccc1 | nt | i | -0.9 | -14.9 | 5.6 | -3.0 | -2.8 | 1.8 | 0.7 | -1.2 |
| N#C/C(C(N)=O)=C1/SC=C(c2ccccc2)N1c1ccccc1 | 0.653 | i | 8.6 | 18.9 | 0.5 | -1.0 | 9.0 | -0.3 | -1.0 | -16.9 |
| Cc1cccc(-c2cc3c(nn2)-c2ccccc2C3=O)c1 | 0.72 | nt | nt | nt | nt | -15.4 | 10.4 | -7.0 | nt | 4.5 |
| COCCN(C(=O)CCC(=O)Nc1cc(C)on1)C(C(=O)NC(C)(C)C)c1cccc(OC)c1OC (centres undefined) | 0.677 | i | 0.7 | 9.2 | -0.1 | 5.0 | -5.5 | 0.3 | 0.7 | -0.3 |
| C=CCC(C(=O)OC)(C(=O)OC)c1ccc([N+](=O)[O-])cn1 | 0.673 | nt | nt | nt | nt | -0.8 | -3.6 | -0.9 | nt | 1.1 |
| CCSc1nc(N)c2c3c(sc2n1)CCC3 | 0.706 | nt | nt | nt | nt | -4.6 | -6.7 | 2.1 | nt | 1.3 |

(next part)
SMILES	Ecoli growth	FGF22 binding	rRNA inh HTS	rRNA inh HTS OD600	rRNA inh HTS RFP	Beta apoptosis	T cruzi inh	Bfl-1 A1 inh	MLL AF4-AF9 inh	UCH37 inh
NC(=O)c1cc(S(=O)(=O)N2CCCC2)ccc1OCc1ccc(F)cc1	nt	i	3.5	5.7	-1.3	3.4	-2.1	0.7	-0.5	nt
CCN(Cc1cc2cc(OC)ccc2[nH]c1=O)C(=O)c1ccncc1	0.697	nt	nt	nt	nt	-3.5	-9.0	0.5	nt	-49.4
COc1cc(/C=N/n2c(=S)[nH]nc(C)c2=O)cc([N+](=O)[O-])c1O	nt	i	-9.4	-7.6	-1.6	nt	1.6	-0.4	-1.0	nt
CCc1ccc(N=C2N=C(N)c3ccccc32)cc1	0.756	nt	nt	nt	nt	-7.8	-1.9	1.2	nt	2.5
Cc1noc(C)c1C(=O)NCCCN1CCCC1=O	0.632	nt	nt	nt	nt	-12.7	3.6	-0.9	nt	-0.9
CCOc1ccc(C2C(C(=O)NC)=C(C)Nc3nc4ccccc4n32)cc1OC (centres undefined)	0.723	i	9.2	1.2	8.2	nt	-12.0	0.2	-0.2	4.3
Cc1cccc(C(=O)Nc2scc(CC(C)C)c2C(=O)O)c1	0.653	nt	nt	nt	nt	-7.1	-25.6	-1.7	nt	1.7

Compound activity: PubChem BioAssay, several laboratories

Only part of the results is shown. The share of hits here may be higher or lower than overall.
